HSV augment: increases HSV replication in cells; HSV replication augmentation in cells, fold increase; maximum fold increase; 220,000 tested, 0.005% active; AID 1956;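 active = peak rise of 1.5-fold or more in the series; tested in PC3 cells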;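 also: first round at 10 µM; read as green reporter fluorescence; hits show the peak of a series up to 25 µM; 1 = signal of infected wells without compound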
PKD1 kinase inh: blocks activity of human protein kinase D1; Q15139; PKD1 kinase fluorescence polarization assay; 200,000 tested, 0.056% active; inhibition, %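 (about 10 µM by stock and volumes)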; AID 797;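 active = inhibition of 50% or more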;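 also: controls were vehicle for no effect and a reference inhibitor for full effect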
Insulin prom inh: TRM-6 insulin promoter activity inhibition. TRM-6 cells (human fetal islet line), insulin promoter-eGFP reporter, imaging; reporter expression induced with tamoxifen. inhibition, % at 2 µM. 130,000 tested, 0.9% active;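 active = inhibition above the mean plus 3 SD, with well images judged a real hit on visual review, cut at about 60% in these data, passing the limit was not always enough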
RGS16-Gao: regulators of human RGS16-Galphao interaction; O15492+P09471; bead-based flow cytometry RGS16-Galphao binding, fluorescence; actives lie on both sides; binding response (% of control), % at 10 µM; 220,000 tested, 0.38% active; AID 1441;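 active = below 25% or above 175%, edge rows of some plates excepted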;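 also: Galphao activated by GDP with aluminum fluoride before binding; 100% = wells without compound and 0% = beads without RGS; some results beyond the cut were filed as inactive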
Target sequence (O15492 whole entry, looked up): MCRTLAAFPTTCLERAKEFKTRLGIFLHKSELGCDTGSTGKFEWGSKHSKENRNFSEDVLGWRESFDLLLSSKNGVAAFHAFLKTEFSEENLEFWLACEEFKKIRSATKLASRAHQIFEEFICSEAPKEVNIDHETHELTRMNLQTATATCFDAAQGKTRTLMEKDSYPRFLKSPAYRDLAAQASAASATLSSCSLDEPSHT
Target sequence (P09471 whole entry, looked up): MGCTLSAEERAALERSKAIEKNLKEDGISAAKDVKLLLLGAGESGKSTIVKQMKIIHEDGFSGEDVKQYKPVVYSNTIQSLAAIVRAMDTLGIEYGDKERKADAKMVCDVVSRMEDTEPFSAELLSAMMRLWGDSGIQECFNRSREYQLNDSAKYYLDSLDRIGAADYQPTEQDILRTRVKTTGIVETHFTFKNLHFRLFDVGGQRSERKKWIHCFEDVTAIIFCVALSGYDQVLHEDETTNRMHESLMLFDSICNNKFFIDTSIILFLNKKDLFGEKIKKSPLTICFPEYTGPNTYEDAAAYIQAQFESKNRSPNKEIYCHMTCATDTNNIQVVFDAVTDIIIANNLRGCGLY
GALR2 ag: agonists of human galanin receptor 2 (GALR2) | GALR2-expressing cells, agonist activation read-out | activation, %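 (tested at 5 µM)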 | 140,000 tested, 0.48% active;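 active = above mean plus 3 SD of all compounds, about 5% in these data, not always enough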;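 also: 0% = vehicle buffer wells and 100% = reference agonist at full effect; tested in CHO reporter cells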
Target sequence (O43603 whole entry, looked up): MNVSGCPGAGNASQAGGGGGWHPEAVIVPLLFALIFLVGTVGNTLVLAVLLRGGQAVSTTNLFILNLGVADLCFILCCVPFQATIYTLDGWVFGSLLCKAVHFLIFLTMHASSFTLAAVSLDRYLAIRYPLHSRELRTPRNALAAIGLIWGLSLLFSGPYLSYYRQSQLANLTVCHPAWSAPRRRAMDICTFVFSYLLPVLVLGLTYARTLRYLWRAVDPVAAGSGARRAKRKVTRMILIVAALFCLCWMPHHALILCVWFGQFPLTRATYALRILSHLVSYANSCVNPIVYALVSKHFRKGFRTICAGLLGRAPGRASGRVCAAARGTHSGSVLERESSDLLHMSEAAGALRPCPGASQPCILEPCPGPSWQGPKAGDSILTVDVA
Insulin prom inh cell count: second read-out of Insulin prom inh, no call of its own (marks repeat the call); normalized cell count, %; measured here: cell count, toxicity; reference of the scale not given here;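 cells exposed to compound for 48 h; stained nuclei by imaging scaled within each plate; lower means fewer cells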
HSV augment primary fold: second read-out of HSV augment, no call of its own (marks repeat the call); fold increase; compound at 10 µM; measured here: primary screen fold increase 10 uM; tested in PC3 cells;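 GFP signal in the first replicate; 1 = infected wells without compound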
* hit, by the source's call; i = inactive; . = no result given.

Molecule	HSV augment	HSV augment primary fold	PKD1 kinase inh	Insulin prom inh	Insulin prom inh cell count	RGS16-Gao	GALR2 ag
O=C1C2C3c4ccccc4C(c4ccccc43)C2C(=O)N1Cc1ccccn1 (centres undefined)	.	.	0	-77	116	102	.
CC(C)(C)NC(=S)NCc1ccncc1	i	1.1	0	.	.	108	.
CC(=O)Nc1cccc(C(=O)OCc2ccccc2)c1	i	0.97	5	-45	71	70	0.7
O=C(Cn1cc(C(F)(F)F)cc(Cl)c1=O)Nc1cc(Cl)cc(Cl)c1	i	1.1	-2	.	.	101	.
Cc1cnc(C)c(N2CCC(C(=O)NCc3ccco3)CC2)n1	i	0.85	-2	-55	138	99	-2.6
COc1ccccc1NC(=S)NC(NC(=O)C(C)C)C(Cl)(Cl)Cl (centres undefined)	i	1.2	10	.	.	49	.
O=c1c(Cl)c(Cl)cnn1-c1ccccc1	i	0.69	3	-223	14	101	-3.0
COc1ccc(Oc2c(Cl)cnn(-c3ccc(C)cc3)c2=O)cc1	i	0.85	-2	-16	81	99	-5.0
Cc1nc2c(n1O)CCC/C2=N\O	i	0.86	0	.	.	100	-1.3
CCOC(=O)CCCNC(=O)COC(=O)c1cccc(C)c1O	i	0.76	-1	23	49	106	-0.6
CCC(=O)N(CC)c1nc(-c2cc(OC)ccc2OC)cs1	i	0.79	-2	-282	69	96	-2.3
Cc1sc(N/N=C/c2cccs2)nc1-c1ccccc1	i	0.86	3	24	142	101	-1.4

Given with each value named: four of the compounds above
> COc1ccccc1NC(=S)NC(NC(=O)C(C)C)C(Cl)(Cl)Cl (centres undefined)
  HSV augment: i	HSV augment primary fold: 1.2	PKD1 kinase inh: 10	Insulin prom inh: .	Insulin prom inh cell count: .	RGS16-Gao: 49	GALR2 ag: .

> O=c1c(Cl)c(Cl)cnn1-c1ccccc1
  HSV augment: i	HSV augment primary fold: 0.69	PKD1 kinase inh: 3	Insulin prom inh: -223	Insulin prom inh cell count: 14	RGS16-Gao: 101	GALR2 ag: -3.0

> COc1ccc(Oc2c(Cl)cnn(-c3ccc(C)cc3)c2=O)cc1
  HSV augment: i	HSV augment primary fold: 0.85	PKD1 kinase inh: -2	Insulin prom inh: -16	Insulin prom inh cell count: 81	RGS16-Gao: 99	GALR2 ag: -5.0

> Cc1nc2c(n1O)CCC/C2=N\O
  HSV augment: i	HSV augment primary fold: 0.86	PKD1 kinase inh: 0	Insulin prom inh: .	Insulin prom inh cell count: .	RGS16-Gao: 100	GALR2 ag: -1.3

More structures follow.
Molecule	HSV augment	HSV augment primary fold	PKD1 kinase inh	Insulin prom inh	Insulin prom inh cell count	RGS16-Gao	GALR2 ag
Cc1ccc(-c2cc(=O)c3ccc(F)cc3[nH]2)cc1	i	0.86	6	.	.	98	.
COc1ccc(OC)c(NC(=O)CSc2nnc(C)n2Cc2ccccc2)c1	i	1	12	10	208	116	-2.0
O=C(N=Nc1c(O)n(C2OC(=O)c3ccccc32)c2ccccc12)c1ccc(O)cc1 (centres undefined)	.	.	6	-28	126	97	0.5
Cc1cc(C(=O)NC(C)C)on1	i	1	2	64	129	100	0.1
O=C1N/C(=C\c2ccsc2)C(=O)N1Cc1ccc(F)cc1	i	0.92	-1	-13	85	96	-0.1
CC1(C)CC(=O)C2=C(C1)Nc1ccccc1NC2c1nc2ccccc2[nH]1 (centres undefined)	i	0.89	13	.	.	101	-2.9
O=C(COC(=O)CNC(=O)c1ccc(Br)o1)Nc1ccc2c(c1)OCCO2	i	1	0	.	.	102	-1.5
CCc1cc2c(SCC(=O)NC(=O)c3cccn3C)ncnc2s1	i	0.95	-2	27	175	105	.
Cc1ccc(-n2nc(C)cc2N)c(C)c1	i	1	1	.	.	96	.
Cc1nc([N+](=O)[O-])c(Br)n1CC(=O)c1ccccc1	i	0.82	-1	50	96	100	-1.5
CCOc1ccc(CNC(=O)C(CC)n2nc(C)n3c(cc4occc43)c2=O)cc1OC (centres undefined)	i	0.87	1	21	47	75	-4.1
COc1cccc(CNC(=O)Cc2ccc(-n3c(=O)[nH]c4ccccc4c3=O)cc2)c1	i	0.53	1	.	.	105	-0.6
Cc1cc(C)c2c(n1)nn1c(NCCCN3CCOCC3)cc(C)nc21	.	.	-4	-37	38	.	-0.8
CC(C)(C)c1ccccc1OCCN1CCCC1	i	0.78	-1	-33	95	97	-1.3
CC(C)CSc1nc2c(c(=O)[nH]c(=O)n2C)n1CC(O)COc1cccc2ccccc12 (centres undefined)	i	0.71	-8	.	.	85	2.4
COC(=O)CC1=C(C(=O)OC)[C@@H](c2ccccc2[N+](=O)[O-])C(C#N)=C(N)O1	i	1.1	.	.	.	97	.
CC(=O)Nc1cccc(S(C)(=O)=O)c1	i	1	-13	15	84	107	-0.5
O=C(CSc1nc2ccc(S(=O)(=O)N3CCOCC3)cc2[nH]1)N1CCOCC1	i	1	-4	-11	147	47	-0.9
COc1ccccc1N(CC(O)COc1ccccc1)S(=O)(=O)c1ccccc1 (centres undefined)	i	0.97	-8	19	157	106	-1.5
CCOC(=O)C1(Cc2cccc(F)c2)CCN(Cc2cn(CC)nc2C)CC1	i	1	-3	.	.	102	.
Cc1cccc(NC(=O)C23CCC(C)(C(=O)O2)C3(C)C)c1 (centres undefined)	i	1	1	.	.	91	.
CC(=O)NS(=O)(=O)c1ccc(NC(=O)c2cc(-c3cccs3)nc3ccccc23)cc1	i	1.1	2	-27	85	114	-0.3
COc1ccc(/C(O)=C2/C(=O)C(=O)N(CCN(C)C)C2c2ccccn2)cc1OC (centres undefined)	i	0.85	-1	-29	122	101	-2.0
CCOC(=O)c1c(NC(=O)c2nn(CC)cc2Br)sc2c1CCCCC2	i	1.4	-1	50	114	102	-1.9
COc1ccc(NC2c3ncccc3C(=O)N2Cc2cccs2)cc1 (centres undefined)	i	1.1	2	.	.	103	.
NC(=O)c1cc(Br)cc(C2CCCCC2)c1O	i	1.2	.	.	.	95	.
O=C(CCc1nc2ccccc2s1)OCc1ccccc1	i	1	-5	-32	77	107	0.0
COCCN(CC(=O)NCc1ccc(OC)cc1)C(=O)CCC(=O)Nc1nccs1	i	0.94	3	-41	92	80	-1.4
Cc1cccc(NC(=O)Cn2c(=O)n(CCC(=O)NC3CCCC3)c(=O)c3ccccc32)c1	i	0.88	-4	-14	164	99	-1.4
CCc1c(C)nc2ncnn2c1N1CCC(C(=O)Nc2cccc(C(C)=O)c2)CC1	i	1	0	-12	79	104	1.9
O=C(CCN1C(=O)C2C3CCC(C3)C2C1=O)Nc1ccc(Br)cc1 (centres undefined)	i	0.94	-9	-16	118	54	-0.7
O=C(Nc1ccc(Nc2ccncc2)cc1)c1ccc(Nc2ccnc3ccc([N+](=O)[O-])cc23)cc1	i	0.82	.	.	.	36	.
Nc1ccc(C(=O)OCC(=O)N2CCN(C(=O)c3ccco3)CC2)cc1[N+](=O)[O-]	i	0.97	4	2	122	102	-0.3
S=C(NCc1ccc(Cl)cc1)NC1CCCCC1	i	1	-13	7	53	106	-0.3
Oc1ccc(-c2nncn2-c2ccccc2)cc1	i	0.61	-4	13	91	88	.
Cc1ccc(-c2nnn(CC(=O)Nc3cccc4c3CCCC4)n2)o1	i	1	-9	-16	85	98	-0.8
CC(CCC(=O)Nc1nncs1)C(=O)O (centres undefined)	i	0.82	-3	.	.	99	0.0
CN(C)c1nc(-c2ccccc2)nnc1C(F)(F)F	i	0.97	-3	-44	62	104	-0.2
CCCC(=O)NCCCc1nc2ccccc2n1CC	i	0.95	-14	.	.	99	-0.5
CCN(CC)S(=O)(=O)c1ccc(N2CCCCC2)c(NC(=O)c2ccncc2)c1	i	0.89	-2	0	42	100	.
Cc1nn(CC#N)c(=O)n1-c1ccc(C(C)C)cc1	i	0.84	2	.	.	91	.
CCOC(=O)N1CCC(NS(=O)(=O)c2ccc(C#N)cc2)CC1	i	1.3	.	.	.	95	.
CC(CCc1ccccc1)NC(=O)COc1cc(F)ccc1[N+](=O)[O-] (centres undefined)	i	0.98	-7	.	.	95	.
C=CCn1c(N)c(C(=O)NCC2CCCO2)sc1=S (centres undefined)	i	0.99	-1	-9	78	102	-0.9
Cc1ccc(C)c(C(=O)Cn2ncc(Cl)c(Cl)c2=O)c1	i	0.41	1	-269	14	117	-1.8
COc1ccccc1CCn1cnc2c3cc(C)ccc3n(C)c2c1=O	i	0.93	-4	-14	70	91	-1.1
CC(C)=C1C2CCC1C1C(=O)N(NC(=O)COc3ccc(Cl)c(C)c3)C(=O)C21 (centres undefined)	i	1.1	-13	0	94	99	-2.1
O=c1/c(=C/c2ccccc2)sc2nnc(-c3cccs3)n12	i	0.99	.	.	.	99	.
CCOc1ccc(C(=O)/C=C/Nc2ccc(S(=O)(=O)N=C(N)N)cc2)cc1	i	0.96	2	9	56	95	1.5
c1ccc2oc(SCc3cn4ccsc4n3)nc2c1	i	0.95	-7	.	.	103	0.3
Cc1cccc(N(CC(=O)Nc2ccc(-c3nc4ccc(C)cc4s3)cc2)S(C)(=O)=O)c1	i	0.79	-10	-17	138	112	-1.0
Cc1ccc(S(=O)(=O)NC(CC(=O)NC2CCCC2)c2ccco2)cc1 (centres undefined)	i	0.86	-15	.	.	96	-0.4
COc1ccc(C(=O)NC2CCN(C(=S)Nc3cc(C)cc(C)c3)CC2)cc1	i	0.89	-3	.	.	103	-1.2
COc1cccc(C(=O)Oc2cc(-c3ccccc3)no2)c1	i	0.93	4	26	68	101	-1.3
Cc1[nH]c(=O)[nH]c(=O)c1S(=O)(=O)N1CCCC(C(=O)NCCc2ccc(Cl)cc2)C1 (centres undefined)	i	0.82	-6	-11	106	111	-1.0
COc1ccc(C(=NNc2ccccc2C(=O)O)c2ccc(OC)cc2)cc1	i	0.98	5	29	117	100	-0.6
CCCc1cc2c(cc1NC(=O)c1ccc(C(C)(C)C)cc1)OCO2	i	1	-3	.	.	103	-1.4
O=C(Nc1ccccc1)N1CCN(C(=O)Nc2ccccc2)CC1	i	1	-4	55	90	99	.
CN(C)c1ccc(C=NCCC2(c3ccccc3)CCOC(C)(C)C2)cc1 (centres undefined)	i	0.97	.	.	.	97	.
CC1S/C(=N\N=C\c2cccc([N+](=O)[O-])c2)N(C(C)(C)C)C1=O (centres undefined)	i	1.1	.	.	.	102	.

More structures follow:
Molecule	HSV augment	HSV augment primary fold	PKD1 kinase inh	Insulin prom inh	Insulin prom inh cell count	RGS16-Gao	GALR2 ag
CCN(CC(=O)Nc1ccc(N2CCOCC2)cc1)CC(=O)NC(C)(C)C	i	1	-6	.	.	99	.
COc1ccc(/C=N/NC(=O)CCc2c(C)n[nH]c2C)cc1OC	i	0.96	-3	46	71	100	-2.7
COc1ccccc1OCCC(=O)OCC(=O)c1c(N)n(C)c(=O)n(C)c1=O	i	0.98	-6	.	.	93	.
O=C(NC1(C(F)(F)F)NC(=O)N(Cc2ccco2)C1=O)c1cccnc1 (centres undefined)	i	0.96	-9	0	102	102	-1.4
O=C(CN1CCCCC1)Nc1cccc([N+](=O)[O-])c1	i	0.99	-7	.	.	98	-2.3
CCOc1ccc(C(CCc2ccccc2)NC(=O)c2ccc(OC)c(OC)c2)cc1OCC (centres undefined)	i	0.86	2	-3	66	105	-1.6
CS/C(N)=N/N=C/c1cc(Br)cc(Br)c1O	i	1.2	.	.	.	98	.
C=CCOc1ccc(C2C(C(=O)c3ccco3)=C(O)C(=O)N2c2nnc(C)s2)cc1 (centres undefined)	i	0.97	-3	14	178	110	.
CC(=O)Nc1ccc(S(=O)(=O)NNC(=O)COc2ccc(C)cc2)cc1	i	1.1	0	-68	126	110	0.4
C/C(Cc1ccccc1)=N\NC(=O)CNC(=O)c1ccccc1	i	1	0	.	.	103	0.5
O=C(O)c1nnn(-c2cc(C(F)(F)F)cc(C(F)(F)F)c2)c1-c1ccccc1	i	1.1	.	.	.	101	.
CN1CCN(CC(=O)Nc2ccc(OCc3ccccc3)cc2)CC1	.	.	3	25	92	101	-2.6
O=C(Nc1ccc(Cl)cc1)OCc1cn(-c2ccccc2)nn1	i	1	-2	33	62	117	.
O=C(c1ccco1)N1CCN(C(=O)N2CCCC2)CC1	i	0.89	3	31	119	102	.
COc1ccc(N(CC(=O)Nc2ccc3c(c2)OCO3)S(=O)(=O)c2ccc(F)cc2)cc1	i	0.96	2	-3	116	97	-1.1
O=C(C1CCCN(S(=O)(=O)c2ccccc2)C1)N1CCCCCC1 (centres undefined)	i	1.1	3	-25	130	107	-0.6
CC[N+](C)(CC)CCC/C(=N/O)C(O)(c1ccccc1)c1ccccc1	i	1.1	.	.	.	100	.
O=C(COc1ncnc2scc(-c3ccc(F)cc3)c12)NCc1ccco1	i	0.89	0	-69	90	91	-2.7

Assay outcomes deposited in PubChem by several laboratories.

The order is random. Share with any hit: about 1.1%.
